# RanGTP-Impb inh: inhibitors of RanGTP-importin-beta interaction, primary screen, biochemical, FRET, CFP-Ran, YFP-importin-beta, homogeneous; cell-free CFP-Ran/YFP-importin-beta FRET ratio; inhibition, % (test concentration not listed); hit rate 1.1% among 300,000; AID 2216;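 active = most replicates above 15%; inconclusive = exactly half above 15%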;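 also: 0% = DMSO wells and 100% = Ran loaded with GDP instead of GTP; wells of about 40 µL received 100 nL stock; the first replicate is given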
# A1 inh: inhibitors of the anti-apoptotic protein A1, read as caspase activation | MEF A1-2A-BIM cells, Caspase-Glo 3/7 luminescence, 3 h; percent of clofoctol response, vehicle zero | caspase activation, % (concentration not given with the values) | hit rate 0.066% among 330,000;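 active = over half of replicate activation scores above 10%, or exactly half above 10 with the replicate mean above 10; inconclusive = replicate mean below 10 yet half the replicates above 10; inactive = over half of replicates below 10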;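 also: wells of about 30 µL received 50 nL stock; many hits fall short of the cut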
# Beta cell apopt: blocks beta cell apoptosis. INS-1E cytokine-induced death, ATP luminescence, 48 h; percent of positive-control rescue, neutral wells zero. protection from apoptosis, % (test concentration not listed). hit rate 0.8% among 300,000;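 active = all replicates at 75% or more, or half of them and the mean; inconclusive = half reach 75% but not the mean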;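 also: 0% = cytokine-treated negative control wells and 100% = positive control rescue; higher means more ATP so stronger rescue from cytokine killing; wells of about 40 µL received 100 nL stock; the first replicate is given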
# Calb FLC: C. albicans growth modulation with fluconazole; C. albicans CaCi-2 (fluconazole-resistant clinical isolate) + fluconazole, Alamar Blue growth, 48 h; growth inhibition, % (test concentration not listed); hit rate 0.57% among 300,000;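 active = most replicates above 75%; inconclusive = exactly half above 75%; inactive = most below 75%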;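 also: all wells also contain fluconazole at 8 µg/ml as a sub-toxic cotreatment; 0% = median of DMSO wells and 100% = median of geldanamycin control wells; wells of about 8 µL received 7.5 nL stock; the first replicate is given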
# Beta2AR agonist: activates human beta-2 adrenergic receptor causing internalization. P07550. Am2.2-beta2AR cells, FAP receptor internalization, flow cytometry; reference of the scale not given here. hit rate 0.43% among 340,000. response, % (concentration not given with the values);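 active = response above a set limit, near 3 SD of response in nonfluorescent compounds, cut at about 42% in these data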;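 also: stock transfer was 100 nL into about 11 µL; a reference agonist was the positive control; negative values mostly stem from fluorescent compounds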
# LANA-H2B inh: blocks KSHV LANA binding to histone H2A/H2B; cell-free LANA-H2A/H2B peptide, fluorescence polarization; inhibition, % (test concentration not listed); hit rate 0.6% among 320,000; in the data active = inhibition mostly above about 10%, no sharp cut-off; inactive = mostly below about 6.7%;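 also: stock transfer was 7.5 nL into about 10 µL; 0% = median of vehicle wells and 100% = median of positive control wells; one replicate is shown; the record names a cut of 25% in any replicate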
# Target sequence (Q9QR71 whole entry, looked up): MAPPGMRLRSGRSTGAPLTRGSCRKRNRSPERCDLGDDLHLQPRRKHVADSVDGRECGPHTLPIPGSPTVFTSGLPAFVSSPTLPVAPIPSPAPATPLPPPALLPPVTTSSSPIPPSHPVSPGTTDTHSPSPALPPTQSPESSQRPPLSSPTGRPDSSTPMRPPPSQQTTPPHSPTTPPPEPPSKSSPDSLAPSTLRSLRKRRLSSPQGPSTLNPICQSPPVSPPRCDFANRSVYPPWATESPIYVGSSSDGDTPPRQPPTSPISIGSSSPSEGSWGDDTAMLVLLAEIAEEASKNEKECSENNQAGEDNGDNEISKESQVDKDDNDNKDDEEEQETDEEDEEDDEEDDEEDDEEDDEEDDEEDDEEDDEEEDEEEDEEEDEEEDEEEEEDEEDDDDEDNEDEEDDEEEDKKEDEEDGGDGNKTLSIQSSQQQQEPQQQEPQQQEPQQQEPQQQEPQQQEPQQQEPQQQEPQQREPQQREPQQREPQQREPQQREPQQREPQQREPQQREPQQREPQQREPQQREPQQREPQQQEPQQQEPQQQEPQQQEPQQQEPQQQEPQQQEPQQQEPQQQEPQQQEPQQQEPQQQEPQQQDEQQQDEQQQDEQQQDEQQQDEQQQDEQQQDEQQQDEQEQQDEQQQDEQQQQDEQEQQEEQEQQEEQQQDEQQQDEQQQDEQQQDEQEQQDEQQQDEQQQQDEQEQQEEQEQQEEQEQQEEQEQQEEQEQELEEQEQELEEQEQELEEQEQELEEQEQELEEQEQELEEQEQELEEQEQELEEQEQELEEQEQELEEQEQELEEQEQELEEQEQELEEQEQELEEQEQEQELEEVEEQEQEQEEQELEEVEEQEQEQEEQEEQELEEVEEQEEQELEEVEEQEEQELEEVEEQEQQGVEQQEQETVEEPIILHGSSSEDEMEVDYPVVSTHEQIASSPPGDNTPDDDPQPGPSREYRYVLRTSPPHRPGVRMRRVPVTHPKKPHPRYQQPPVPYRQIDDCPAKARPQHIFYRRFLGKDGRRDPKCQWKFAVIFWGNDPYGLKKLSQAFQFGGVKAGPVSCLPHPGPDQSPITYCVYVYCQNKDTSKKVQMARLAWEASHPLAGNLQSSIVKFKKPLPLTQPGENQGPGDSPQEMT
# T cruzi repl: T. cruzi replication inhibition | T. cruzi beta-gal in NIH3T3, luminescence, 90 h | hit rate 1.4% among 300,000 | inhibition, % (no concentration beside the values);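 active = mean inhibition across valid replicates above about 55%, limit read from the data; inconclusive = mean below that limit but half or more replicates reach it; inactive = mean below it, under half of replicates reach it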;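 also: signal also drops with host cell toxicity which is not excluded here; 0% = plate median of DMSO wells and 100% = zero luminescence signal; higher percent means less beta-gal luminescence so fewer parasites; stock transfer was 50 nL into about 50 µL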
# UCH37 DUB inh: human UCH37 deubiquitinating enzyme inhibition. hit rate 0.33% among 330,000. Q9Y5K5. inhibition, % (test concentration not listed). purified proteasome/UCH37, Ub-AMC cleavage fluorescence;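 active = mean of two replicates above 20%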;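 also: 0% = compound-free wells with enzyme and 100% = wells lacking proteasome; stock transfer was 100 nL into about 20 µL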
#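 assay system = human UCH37 enzyme supplied as purified proteasome complex | amount = proteasome at 0.15 nM in the dispensed enzyme solution | schedule = 30 min compound-proteasome preincubation then 25 min substrate reaction, room temperature | measured by = fluorescence, ex 355 nm, em 460 nm | benchmarks = no-proteasome wells (full inhibition) and compound-free wells (no inhibition)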
# * = called active by the depositor; ? = inconclusive; · = not tested or not shown; & = joins results of further samples.
SMILES,RanGTP-Impb inh,A1 inh,Beta cell apopt,Calb FLC,Beta2AR agonist,LANA-H2B inh,T cruzi repl,UCH37 DUB inh
CCOc1ccc(C(C)=O)cc1CN1C(=O)NC(C)(C2CC2)C1=O (configuration not stated),-3.1,0.1,-3,8,-5,3.3,15,2.2
CCC(O)(CCN1CCCCC1)c1ccccc1 (configuration not stated),-4.6,1.0,-8,5,0,0.2,-4,-7.0
CCC(Sc1ccc(Cl)cc1)C(=O)Nc1nnc(-c2cccc([N+](=O)[O-])c2)s1 (configuration not stated),6.1,0.7,-1,12,0,1.5,-1,5.1
CCOC(=O)Nc1cc(OC)c(OC)cc1Cc1nccc2cc(OC)c(OC)cc12,-1.5,-0.3,10,15,-11,3.9,6,2.8
O=C(c1ccccc1-c1nc(-c2ccccc2)no1)N1CCOCC1,-1.6,-0.1,-1,6,-6,2.9,-8,0.3
Cc1nc(N2CCOCC2)c2c(C)c(C(=O)Nc3ccc(F)cc3F)sc2n1,0.2,-0.4,1,-11,2,0.5,-6,-0.1
COc1ccc(C(=O)CN2C(=O)NC3(CCc4ccccc43)C2=O)cc1 (configuration not stated),2.6,0.9,0,-4,-2,-2.0,4,1.1
CC(C)(C(=O)c1ccccc1)/[N+]([O-])=C/c1ccccc1,-2.8,-0.3,-1,-7,1,-0.8,3,4.4
Cc1ccc(C)c(NC(=S)NNC(=S)Nc2ccc(C(C)C)cc2)c1,?,0.5,23,37,15,0.7,65*,3.6
O=C(CN1CCCCC1)NCCNC(=O)CN1CCCCC1,6.7,0.1,-7,-28,-6,-2.0,0,1.8
COc1ccc(C2=CC(=O)CC(c3ccc(F)cc3)C2)cc1 (configuration not stated),-2.1,-0.1,-2,23,-13,8.8,20,5.5
Cc1ccc(CC(CC(=O)O)C(=O)Nc2ccc(Cl)cc2)cc1 (configuration not stated),-5.0,0.6,-8,-7,-1,1.6,-16,1.1
COc1ccc(C)cc1-n1nnnc1SCC(=O)N1CCC(C(=O)Nc2nccs2)CC1,-0.5,?,-4,-11,4,2.5,18,5.3
CCOC(=O)N1CCC(NC(=O)c2cc(S(=O)(=O)N3CCCC3)cn2C)CC1,?,1.1,0,-7,3,-5.6,-2,0.8
O=C(Nc1ccccc1)c1cccc(S(=O)(=O)Oc2ccc([N+](=O)[O-])cc2)c1,-4.2,-0.6,-2,30,2,5.0,-9,4.3
CC(C)(C)NC(=O)COC(=O)Cc1ccc(Cl)cc1,4.2,-0.5,·,-4,2,4.5,-9,0.7
CC(C)c1ccc(OCC(=O)NNC(=S)NC(=O)C2CC2)cc1,1.0,-1.4,6,-9,1,-3.8,24,·
COc1cc(NC(=O)c2ccc(COCC(F)(F)F)cc2)cc(OC)c1OC,-5.5,0.2,4,-7,7,7.1,-6,0.1
CNC(=O)c1ccsc1NC(=O)c1ccccc1,-0.7,-1.0,6,10,-4,-4.1,-13,8.3
C=CCN(C(=O)C1CC(=O)N(C2CCCC2)C1)c1nc(-c2ccc(S(C)(=O)=O)cc2)cs1 (configuration not stated),·,-1.0,11,·,26,2.7,·,-0.7
CC(=O)c1sc(NC(=O)c2cc(S(=O)(=O)N3CCOCC3)ccc2F)nc1C,·,1.6,-2,·,8,3.2,·,3.7
Cc1cccc(-c2n[nH]c(S(C)(=O)=O)c2C#N)c1,1.9,-2.0,-1,11,-1,-3.2,-3,3.6
O=C(N/N=C/c1c[nH]c2ccccc12)c1ccccc1O,2.0,-5.5,-5,-13,5,-1.2,11,·
COc1ccccc1NC(=O)c1sc2nc(Cc3ccccc3)cc(C(F)(F)F)c2c1N,-38,-0.4,-3,-5,-12,-3.7,-10,-23
Cc1ccc(C)c(NC(=O)c2c(Cl)nc3ccccn23)c1,0.8,0.0,1,-25,-9,-1.8,27,4.8
CCCc1n(CC)c2ccccc2[n+]1CC(O)COC1CCCCC1 (configuration not stated),2.0,1.7,·,-13,-2,2.2,47,1.2
C=CC1=C(C(=O)O)N2C(=O)C(NC(=O)Cc3ccccc3)C2SC1 (configuration not stated),3.9,-1.0,-9,5,15,-6.2,-9,0.8
CCC(C)(C)NC(=O)C(c1ccc(C)o1)N(C(=O)c1csnn1)c1cccc(F)c1 (configuration not stated),4.0,-0.2,1,1,7,-4.9,3,4.9
O=C(c1cncc(Br)c1)N1CCc2ccccc2C1,3.8,0.3,-6,-8,0,-1.6,-6,2.5
CCC1CCCCN1C(=O)CCc1nnc(Cc2c[nH]c3ccccc23)o1 (configuration not stated),-4.9,0.3,-2,7,3,-1.2,?,3.7
COc1cc(C(=O)N/C(=C\c2cn(C)c3ccccc23)C(=O)NCCCN2CCOCC2)cc(OC)c1OC,4.8,0.5,0,24,11,-0.1,-13,13
CCn1nc(CC(=O)Nc2nnc(CC(=O)N3CCOCC3)s2)c2ccccc2c1=O,-1.5,0.4,0,-1,5,-11,-14,-0.2
CC(C)(C)OC(=O)[C@H](Cc1ccccc1)NC(=O)c1nc[nH]c1C(=O)N[C@@H](CCCCN)C(=O)OC(C)(C)C,·,0.4,0,·,15,7.2,·,0.2
Cc1ccc(C(=O)N/C(=C\C=C\c2ccccc2)C(=O)NCc2ccco2)cc1,4.0,-0.1,-3,-13,8,0.9,0,1.4
O=C(O)c1ccccc1NC(=S)NC(=O)c1sc2ccccc2c1Cl,·,0.4,-4,15,-1,-1.1,-7,-26
CCCCCCSc1ccc(-c2nc3ccc(C)cn3c2NCc2ccccc2)cc1,0.0,-0.3,·,-10,9,6.0,13,-250
CCCOc1ccc(C(=O)Nc2ccc(C)cc2[N+](=O)[O-])cc1,-2.6,-0.4,-4,-13,-10,0.6,-7,3.6
COc1ccc(N(CC(=O)NCc2ccc3c(c2)OCO3)S(=O)(=O)c2c(C)nn(C)c2C)cc1,1.5,-0.3,4,-4,-7,0.4,-5,2.0
Cc1cc(C)n(/N=C\c2c(O)ccc3ccccc23)c(=O)c1C(N)=O,3.3,0.2,-3,7,-2,-1.7,-5,·
O=C(NCc1nc(-c2ccc(Cl)cc2)no1)c1ccco1,-0.3,-1.1,-4,-4,-5,2.5,2,2.8
Cc1ccc(C)c(N2CCN(C(=O)CC3Sc4ccccc4NC3=O)CC2)c1 (configuration not stated),7.9,0.7,-2,28,·,-0.8,12,-1.6
Cc1csc(SCC(=O)c2ccc(S(=O)(=O)N3CCOCC3)cc2)n1,3.7,-0.7,-2,8,-2,0.3,-5,1.6
CCC(C)NC(=O)CN(c1cc(C)cc(C)c1)S(=O)(=O)c1c(C)[nH]c(=O)[nH]c1=O (configuration not stated),-0.2,0.0,0,5,-4,-3.5,-5,-0.6
COc1ccc(C(=O)OCC(=O)NC(=O)CCSc2ccccc2)cc1,1.7,0.9,1,0,1,-5.0,-21,4.5
CC(=O)Nc1ccc(NC(=O)C(C)OC(=O)COc2ccc(Nc3ccccc3)cc2)cc1 (configuration not stated),·,0.1,4,·,5,-0.5,·,0.4
CC(C)Oc1ccc(CNC(=O)c2cc(S(=O)(=O)N3CCOCC3)cn2C)cc1,1.2,0.3,1,11,-2,2.4,11,0.5
CCN(CC(=O)Nc1ccccc1C(=O)OC)S(=O)(=O)c1ccc(OC)cc1,-0.8,-0.2,0,-5,-6,-0.5,4,2.2
Fc1cccc2sc(Nc3nc4ccccc4s3)nc12,-0.8,-1.7,·,4,9,-3.1,-5,-131

# Compounds above that contain a tert-butyl group:
SMILES,RanGTP-Impb inh,A1 inh,Beta cell apopt,Calb FLC,Beta2AR agonist,LANA-H2B inh,T cruzi repl,UCH37 DUB inh
CC(C)(C)NC(=O)COC(=O)Cc1ccc(Cl)cc1,4.2,-0.5,·,-4,2,4.5,-9,0.7
CC(C)(C)OC(=O)[C@H](Cc1ccccc1)NC(=O)c1nc[nH]c1C(=O)N[C@@H](CCCCN)C(=O)OC(C)(C)C,·,0.4,0,·,15,7.2,·,0.2

# The listing continues:
SMILES,RanGTP-Impb inh,A1 inh,Beta cell apopt,Calb FLC,Beta2AR agonist,LANA-H2B inh,T cruzi repl,UCH37 DUB inh
Oc1ccccc1-c1nc(NCc2ccco2)c2ccccc2n1,-0.9,-0.3,36,-15,1,-7.6,37,1.2
O=C(NCCSc1ccccc1)c1ccco1,-3.9,-1.0,-1,2,-4,5.6,3,0.5
CC(=O)C1=C(O)C(=O)N(c2ccc(O)cc2)C1c1ccccc1 (configuration not stated),0.2,0.0,0,1,1,1.6,-4,8.6
COc1ccc(-c2cc(-c3ccccc3O)[nH]n2)cc1,-3.0,1.8,8,-3,13,2.6,-10,-0.2
CCOC(=O)C1=C(C)Nc2ccccc2N=C1NC(=O)c1cccc(S(=O)(=O)N(C)C)c1,-2.6,0.2,2,10,8,0.4,-1,4.0
COC(=O)/C(=C\Nc1ccc(Cl)c2ccccc12)c1ncc(C(F)(F)F)cc1Cl,-3.5,-0.5,0,-4,-5,8.6,7,·
O=C(CN1C(=O)NC(Cc2ccccc2)C1=O)Nc1ccccc1 (configuration not stated),-2.7,0.6,0,1,-1,8.2,-10,-1.0
CC1CCN(S(=O)(=O)c2ccc3c4c2CC(=O)N4CC(C)S3)CC1 (configuration not stated),1.8,-0.6,·,-6,3,4.9,-16,·
Cc1nc2c(o1)CCc1ccccc1C2N1CCN(C)CC1 (configuration not stated),-1.4&-4.8,1.2&0.7,-6&4,1&-6,2&4&-1,1.7&3.6,-7&5,1.5&5.2&4.9
O=C(NC1CC1)C1=C[C@@H](c2ccccc2)C[C@@H](OCCCCO)O1,-0.5,-0.7,2,-2,-15,4.5,-2,-0.3
CCCCC(=O)Nc1ccc(N2CCN(S(C)(=O)=O)CC2)cc1,4.2,0.8,0,4,-16,3.4,-13,4.7
COc1cc(OC)cc(C(=O)Nc2ccc(-n3cnnn3)c(C)c2)c1,4.6,-6.5,11,-5,0,-2.7,-9,7.8
CC1CC(C)(C)CC2(C1)NC(=O)N(CC(=O)NCCc1ccc3c(c1)OCCO3)C2=O (configuration not stated),-1.1,0.7,3,0,-4,-4.5,0,4.2
Cn1c(SCC(=O)NNC(=O)Cc2ccccc2)nc2ccccc2c1=O,?,1.8,-4,?,-5,4.1,-17,-0.8
CCOC(=O)c1c(NC(=O)C(=O)N/N=C(\C)c2ccc(OC)cc2)sc2c1CCCCC2,1.6,0.9,-6,-13,-1,-2.5,11,·
CCS(=O)(=O)NCC(c1ccco1)N1CCN(c2ccccc2)CC1 (configuration not stated),-2.8,0.4,2,8,-9,5.9,13,-1.4
CC(C)CC(CC(C)C)=NNC(=O)c1ccc2c(c1)OCO2,-0.1,-0.3,-1,-11,-1,1.8,2,1.1
COc1ccc(NC(=S)N(CCCN2CCCC(C)C2)Cc2cccs2)cc1 (configuration not stated),0.8,0.9,-2,-19,2,3.2,8,0.9
CCN(CC)S(=O)(=O)c1cccc(-c2nnc(SCC(=O)NC)n2CCc2ccccc2)c1,-0.1,0.1,-8,-1,-8,-0.3,6,0.8
Cc1ccc(S(=O)(=O)N2CCCCC2)cc1NC(=O)COC(=O)c1ccc(O)cc1,2.8,0.9,-6,-2,9,0.3,11,5.5
CCOC(=O)c1[nH]c2cc3c(cc2c1NC(=O)CN1CCC2(CC1)OCCO2)OCO3,-6.2,-0.8,-3,-2,8,-2.8,2,-308

# High-throughput results: PubChem, several laboratories

# Random draw from the library; overall some 4.3% were active at least once.
